VACV Venus inh – qHTS for Stage-Specific Inhibitors of Vaccinia Orthopoxvirus: Venus Reporter Primary qHTS | Vaccinia virus Venus reporter expression, fluorescence | Potency, µM (doses to about 36.5 µM), inactives show at the top dose activity change, negative = inhibition, usual class: inhibitors | 330,000 tested, 0.46% active | AID 720580, 2013; active means well fitted inhibition curve with a large enough effect; inconclusive means small, poorly fitted or top-dose-only effect; inactive means no such curve, though single readings can be large or run the other way; tested in A549 cells; note: nearly all actives have a fitted effect of over 30% in size; inactives centre near -10
Vaccinia mCherry – qHTS for Stage-Specific Inhibitors of Vaccinia Orthopoxvirus: mCherry Reporter Primary qHTS | Vaccinia virus mCherry reporter infection, fluorescence; about a quarter of the inactives have no number | Potency, µM (titrated, usually from 36.5 µM), for inactives: at the highest dose activity change, negative = inhibition, actives largely listed as inhibitors | AID 720579, 2013 | 310,000 tested, 0.63% active; active = well fitted inhibition curve with a large enough effect; inconclusive = small, poorly fitted or top-dose-only effect; inactive = no such curve, though single readings can be large or run the other way; tested in A549 cells; note: nearly all actives have a fitted effect of over 35% in size; inactives centre near -10
The depositor's hits bear a star; i = inactive; ? = inconclusive; . = not tested or not shown; & = joins results of further samples; [ ] = another dose, or the depositor's remark. % is set by controls: 0 for no effect and ±100 for the full control effect; potency is the fitted concentration of half-maximal effect.

SMILES | VACV Venus inh | Vaccinia mCherry
C/C(=N\NC(=S)Nc1cc(S(=O)(=O)N2CCOCC2)ccc1Cl)c1ccccc1F | -26.6% | -36.8%
COc1ccc(/C=N/Nc2ccc(C(=O)O)cc2)cc1Br | -6.8% | -13.8%
S=C(NCCCc1cnc[nH]1)NCCCN(CCc1ccccc1)c1ccc(Br)cn1 | -19.9%&-11.3% | -11.7%&-16.0%
O=[N+]([O-])c1ccc(N2CCCCC2)c(-c2nn[nH]n2)c1 | -8.0% | -10.6%
CCOc1ccc(NC(=O)CCc2nnc3ccc(N4CCC(C)CC4)nn23)cc1 | -13.2% | -8.9%
Cc1ccc(C(=O)Nc2nnc(C)s2)cc1 | -7.2% | -14.2%
Cc1ccc(NC(=O)C(NC2CCCc3ccccc32)c2ccccc2)cc1Cl (centres undefined) | -20.6% | -20.8%
COc1ccc(NS(=O)(=O)c2cc3c4c(c2)CCN4C(=O)CC3)cc1OC | -16.5% | -2.8%
CCOP(=O)(OCC)C(NC(=O)Nc1ccc(Cl)cc1)c1ccccc1 (centres undefined) | -13.0% | i
CC1CCCC(NC(=O)c2cccc(N3CCCC3=O)c2)C1C (centres undefined) | -8.5% | i
O=C(CNC(=O)c1ccc(Cl)cc1Cl)OCc1nnc(-c2ccccc2Br)o1 | -10.7% | -23.4%
S=c1nc(-c2ccccc2)[nH]c2ccccc12 | 1.3% | -6.6%
COc1ccc(OC)c(NC(=O)C2(C)CCN2C(=O)C(C)(C)c2ccccc2)c1 (centres undefined) | -0.3% | i
CN(Cc1ccon1)C(=O)CCc1nnc(Cc2ccc(-c3ccccc3)cc2)o1 | -4.0% | i
C=C1C[C@H](O[C@@H]2O[C@H](CO)[C@@H](O)[C@H](O)[C@H]2O)[C@@H]2[C@H](OC(=O)[C@H]2C)[C@H]2[C@H](C)[C@@H](O)C[C@@H]12 | 1.5% | i
CCCn1c(=O)c(C(=O)Nc2cc(C)ccn2)c(O)c2ccccc21 | -3.3% | -11.1%
Cc1ccc(S(=O)(=O)N2C[C@H]3C(=O)C[C@@H](c4ccc(Cl)cc4)N(S(=O)(=O)c4ccccc4C)[C@H]3C[C@H]2c2cccc(Cl)c2)cc1 | -11.1% | -3.0%
CCOC(=O)C1(NC(=O)C2(N3C(=O)c4ccccc4C3=O)CCCC2)CCCC1 | -21.5% | -18.6%
COc1cccc(CNC(=O)C2CCN(C(=O)N3CCOc4ccc(Cl)cc43)CC2)c1OC | -8.2% | -1.5%
COc1cccc(OC)c1OCCCOc1cccc2cccnc12 | -15.0% | i
Cc1[nH]c2ccccc2c1C(=O)CSc1ncn[nH]1 | ? | -9.6%
CCCS(=O)(=O)N1CC(=O)N(c2ccccc2C)C(C)(C(=O)NC2CCCC2)C1 (centres undefined) | -3.2% | -8.1%
COc1ccc(-n2nc(C(=O)NCC(=O)N3CCN(Cc4ccccc4)CC3)c3ccccc3c2=O)c(OC)c1 | -5.6% | i
CC(C)NC(=O)Cn1ccc2cc(S(=O)(=O)N3CCCCCC3)ccc21 | 1.3% | -4.6%
COCCNC(=O)c1ccc(N2CC3CC(C2)c2cccc(=O)n2C3)c(NC(=O)c2ccccc2Br)c1 (centres undefined) | -7.4% | -20.6%
O=C(/C=C/c1ccco1)c1ccccc1O | 1.8% | 7.8%
O=C(O)c1ccc2c3c(cccc13)C(=O)N(c1cccc3ccccc13)C2=O | -10.3% | -15.0%
CCOc1cc(CNc2ccc(Br)cc2)cc(Br)c1OCC(=O)NC(C)(C)C | ? | -11.0%
CN(Cc1nc2ccccc2[nH]1)C(=O)C1CCC(=O)N(CCc2cccc(F)c2)C1 (centres undefined) | -17.3% | -7.1%
CS(=O)(=O)N(CC(=O)N1CCCC1)c1cccc(Cl)c1Cl | -9.5% | -12.8%

One compound at a time, as listed above. Order of screens: VACV Venus inh, Vaccinia mCherry
O=C(O)c1ccc2c3c(cccc13)C(=O)N(c1cccc3ccccc13)C2=O in the list: -10.3%, -15.0%
CS(=O)(=O)N(CC(=O)N1CCCC1)c1cccc(Cl)c1Cl in the list: -9.5%, -12.8%
CCOc1cc(CNc2ccc(Br)cc2)cc(Br)c1OCC(=O)NC(C)(C)C in the list: ?, -11.0%
CC(C)NC(=O)Cn1ccc2cc(S(=O)(=O)N3CCCCCC3)ccc21 in the list: 1.3%, -4.6%
COc1ccc(-n2nc(C(=O)NCC(=O)N3CCN(Cc4ccccc4)CC3)c3ccccc3c2=O)c(OC)c1 in the list: -5.6%, i

Following part.
SMILES | VACV Venus inh | Vaccinia mCherry
CCCCN1C(=O)C(CC(=O)NCCCCc2ccccc2)CC(C(=O)N(C)C)=C1C (centres undefined) | -22.6% | i
Cc1ccc(C(=O)N/C(=C\c2ccc(-c3ccc([N+](=O)[O-])cc3)o2)C(=O)NC2CCS(=O)(=O)C2)cc1 (centres undefined) | -15.3% | -26.3%
Cc1ccc2nc(Cl)c3cc(C(=O)N(CCN(C)C)Cc4ccco4)sc3c2c1 | ? | ?
Cc1ccc(SCCNC(=O)/C=C/c2cccc([N+](=O)[O-])c2)cc1 | -2.3% | -15.5%
CCOCCCNC(=O)CSc1nnc(-c2ccc(S(=O)(=O)N3CCCC3)cc2)n1C | -8.9% | -12.1%
Cc1ccc(C2OCC3(CO2)COC(c2ccc(C)cc2)OC3)cc1 (centres undefined) | 0.4% | -13.7%
CCCC[C@H]1COCCS(=O)(=O)N1Cc1cccc(F)c1 | -14.9%&-12.0% | -5.1%&-3.5%
CCC(Sc1nc(-c2cccc(OC)c2)c(C#N)c(=O)[nH]1)C(=O)Nc1nnc(C(C)C)s1 (centres undefined) | -16.0% | i
COCCn1cc(C(=O)N2CCC3(CC2)OCCO3)c2c3ccccc3n(C)c2c1=O | 1.7% | -11.9%
Cc1occc1-c1nnc(SCC(=O)Nc2ccccn2)o1 | -10.6% | i
c1ccc(N2CCN(c3ccccc3)C2c2ccncc2)cc1 | -8.0% | i
CCOc1ccc(CNC(=O)CN2C(=O)C3CCCCN3c3ccc(C(=O)N4CCCC4)cc32)cc1 (centres undefined) | 1.0% | -3.5%
COc1ccc(C(=O)NCC(=O)OCc2ccc(Cl)cc2Cl)cc1OC | -12.8% | i
O=P(Cc1cccc2ccccc12)(c1ccccc1)c1ccccc1 | -5.8% | i
Cn1nc(OC(=O)Nc2cccc(Cl)c2)cc1C(F)(F)F | -20.7% | .
CC1(C)N=C(N)N=C(N)N1c1cccc(C#N)c1 | 4.47µM* | 2µM*
S=C(NCCc1ccccc1)N/N=C/c1cccc(Cl)c1Cl | -28.7% | -15.7%
Cc1ccc(C)c(NC(=O)CSc2nc3c([nH]c4ccccc43)c(=O)n2-c2ccc(F)cc2)c1 | -17.2% | -19.2%
CC(=O)NCCC(=O)N(Cc1ccccc1)c1nc2c(C)cccc2s1 | -11.4% | -14.4%
O=C1CN(C(=O)COc2ccc(F)cc2Br)c2ccccc2N1 | -4.7% | i
COc1ccc(N2C(=O)C3CCCN3C2c2ccccc2)cc1 (centres undefined) | 6.2% | -11.5%
O=C(NC(=S)N1CCCC1)c1ccccc1Cl | -28.8% | -11.3%
C#CC(CC)(CC)NC(=O)/C=C/C(=O)O | -12.5% | i
C/C(=N\NC(=O)Cn1ccc(C(F)(F)F)n1)c1ccco1 | -1.7% | i
c1coc(CNCc2cccs2)c1 | -6.6% | -0.7%
NS(=O)(=O)c1cc(C(=O)NC2CCSc3ccccc32)ccc1Cl (centres undefined) | -2.1% | -1.9%
O=C(Nc1ccc2nc(-c3cccnc3)[nH]c2c1)c1ccco1 | 14.9% | 25.1%
CCOC(=O)c1ccc(NC(=O)c2nc[nH]c2C(=O)NCCNC(=O)c2[nH]cnc2C(=O)Nc2ccc(C(=O)OCC)cc2)cc1 | ? | -20.2%
CCOc1ccccc1NC(=O)N1CCN(Cc2nc3ccc(C)cc3o2)CC1 | -16.8% | ?
Cc1ccc(C(=O)Nc2ccc3c(c2)C(=O)NC3=O)cc1 | -8.5% | -19.0%
COCc1cc(C)nc2sc3c(c12)NC(c1ccc(O)c(OC)c1)N(c1ccccc1)C3=O (centres undefined) | -16.2% | i
COc1ccc2c(c1)c1c(c(=O)n(-c3ccc(OC)c(OC)c3)c(=O)n1Cc1ccc(C)cc1)n2C | 1.1% | 2.0%
COc1ccc(C(O)(CC(C)C)C(CN2CCOCC2)c2ccccc2)cc1 (centres undefined) | ? | -14.2%
COc1ccc(S(=O)(=O)N2CCN(CCCOc3ccc(F)cc3)CC2)cc1OC | -22.8% | -9.0%
CN(C(=O)COC(=O)CCC(=O)c1ccc(Cl)cc1)c1c(N)n(Cc2ccccc2)c(=O)[nH]c1=O | -6.6% | i
N/C(=N\OC(=O)CC1CCCCC1)c1ccc(Br)cc1 | -8.1% | i
COc1ccc(NC(=O)CSc2nnc3ccc(-c4cccnc4)nn23)cc1OC | -4.8% | -8.7%
O=C(COc1ccc2ccccc2c1)N1CCN(Cc2c[nH]c3ccccc23)CC1 | ? | ?
N#C/C(=C/c1ccco1)c1nc2ccccc2s1 | 14.4% | -14.1%
CC1(C)C2CC[C@@]1(C)C(=O)C2 | -8.6% | -0.6%
O=c1cc(CN2CCN(Cc3ccccc3)CC2)c2cc3c(cc2o1)CCC3 | 3.0% | -15.2%
COc1cccc(-c2nc3c(c(SCC(=O)N4CCOCC4)n2)Cc2c(CO)cnc(C)c2O3)c1 | 1.8%[7.34 µM] | -14.3%[7.34 µM]
COc1ccccc1C(CNc1ncccc1[N+](=O)[O-])N(C)C (centres undefined) | 0.2% | -12.9%
CCCN(C(=O)Cn1c(C(F)(F)F)nc2ccccc21)C1CCS(=O)(=O)C1 (centres undefined) | -5.3% | -13.9%
Cc1ccc(CC(=O)Nc2ccc(OC(F)F)c(Cl)c2)cc1C | -2.7% | i
C=CCNc1nnc(SCC(=O)Nc2ccccc2OC)c2ccccc12 | -7.9% | i
Cc1cccc(Nc2nc(NCC3CCCO3)nc(N)c2[N+](=O)[O-])c1 (centres undefined) | -17.1% | i
CCOC(=O)C1CCCN(C(=O)c2ccncc2)CC1 (centres undefined) | -9.0% | 26.9%
Cc1c(C)n(O)c2ccc3nonc3c12 | 2.5% | ?
CC(C)N(Cc1ccccc1)C(=O)c1cnc2n(c1=O)CCS2 | -0.3% | i

Next part:
SMILES | VACV Venus inh | Vaccinia mCherry
CC(=O)C(C)Sc1nnc(-c2ccccc2F)n1C1CC1 (centres undefined) | -3.1% | 16.3%
COc1ccc(Cl)cc1C(=O)OCC(=O)Nc1sccc1C(N)=O | -13.2% | i
N#CCCN(Cc1ccccc1)C(c1ccnc2ccccc12)c1nnnn1-c1ccc2c(c1)OCCO2 (centres undefined) | -15.5% | -22.7%
CCCCCN(C(=O)CN1CCC(Cc2ccccc2)CC1)c1c(N)n(CCCC)c(=O)[nH]c1=O | -16.1% | -16.0%
Cc1ccc(C(=O)NCCOc2cccc3cccnc23)cc1Cl | -4.6% | i
CCOC(=O)[C@H]1NN=C(C(=O)OC)[C@@H]1c1ccccc1 | -10.2% | -9.2%
COc1cc(C(O)c2nc(-c3cccc(C#N)c3)cs2)ccc1F (centres undefined) | -1.8% | -5.1%
CCOC(=O)c1ccc(N2C(=O)C(C)=C(C)C2=O)cc1 | -17.4% | .
CCC1SC(CC)C(=O)N(CC(=O)NCc2ccc(F)cc2)C1=O (centres undefined) | -3.3% | i
CSCCC(NS(=O)(=O)c1ccc(Cl)c(Cl)c1)C(=O)O (centres undefined) | 2.5% | -1.6%
Cc1cc(C)n2nc(S(=O)(=O)Nc3c(Cl)cccc3Cl)nc2n1 | 4.5% | i
CC(CNC1CCCCC1)OC(=O)c1ccc([N+](=O)[O-])cc1 (centres undefined) | 10.2% | 52.0%[activator]
CCc1ccccc1NC(=O)C(NS(=O)(=O)c1ccc2c(c1)CCC(=O)N2)c1ccccc1 (centres undefined) | -1.8% | -3.5%
O=C1c2ccccc2C(=O)N1Cc1ccco1 | 1.5% | -8.6%
CCCCNS(=O)(=O)c1ccc2nc(SCC(=O)Nc3ccccc3)[nH]c2c1 | -23.6% | -1.4%
CS(=O)(=O)N(CC(=O)N1CCCCC1)c1cccc(F)c1 | -1.7% | i
CCOc1ccc(N2C(=O)Nc3ccccc3C2(O)C(=O)NCc2ccc(F)cc2)cc1 (centres undefined) | 10.3% | -12.4%
COc1ccc(CCNC(=O)COC(=O)/C=C/c2ccc3c(c2)OCO3)cc1 | -4.7% | -4.5%
CC1CN(S(=O)(=O)c2ccc(C(=O)Nc3ccc(S(=O)(=O)Nc4ncccn4)cc3)cc2)CC(C)O1 (centres undefined) | -22.7% | i
Cc1ccc(NS(=O)(=O)c2c(C)[nH]c(C)c2C(=O)N2CCCCC2)cc1C | -6.6% | -7.0%

Not a retest: entries from further up.
SMILES | VACV Venus inh | Vaccinia mCherry
Cc1cc(C)n2nc(S(=O)(=O)Nc3c(Cl)cccc3Cl)nc2n1 | 4.5% | i
CC(CNC1CCCCC1)OC(=O)c1ccc([N+](=O)[O-])cc1 (centres undefined) | 10.2% | 52.0%[activator]
CCc1ccccc1NC(=O)C(NS(=O)(=O)c1ccc2c(c1)CCC(=O)N2)c1ccccc1 (centres undefined) | -1.8% | -3.5%

Further compounds:
SMILES | VACV Venus inh | Vaccinia mCherry
CC(=O)c1cc2c(cc1NC(=O)c1c(-c3ccccc3)noc1C)OCO2 | 15.7% | .
CCOC(=O)C1=C(COC(=O)c2ccc(Br)o2)NC(=O)NC1C (centres undefined) | -8.9% | -13.8%
CCCNC(=O)CN1C(=O)COc2ccc(S(=O)(=O)N3CCCCCC3)cc21 | 2.6% | -4.6%
COC(=O)c1c(NC(C)=O)sc(C(=O)N2CCOCC2)c1C | -2.0% | -2.8%
